# Mtb hypoxia inh: reduces hypoxia-regulated biosensor signal in M. tuberculosis; M. tuberculosis hypoxia-regulated fluorescent reporter, fluorescence; fluorescence inhibition, % (concentration not given with the values); actives 0.1% (n = 300,000);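 active means 35 to 45% if threefold the growth effect, above 45% if 1.5-fold the growth effect; inactive means the rest, general growth blockers included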;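 further: wells of about 50 µL received 100 nL stock; 0% = vehicle wells and 100% = reference inhibitor wells; whole bacteria with a GFP reporter of the hypoxia response; strong numbers were not always called active; many hits fall short of the cut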
# Bead autofluor: compound fluorescence in toxin protease inhibitor counterscreen. fluorescence intensity (no concentration beside the values). actives 3.1% (n = 360,000). compound autofluorescence counterscreen, microsphere flow cytometry; stronger effect = higher value. AID 624483;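 active means at least 3 SD above the mean of all compounds, about 16000 in these data; inconclusive means too few beads counted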;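 further: 100 nL of 1 mM stock went into each well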
# BJeLR viability: kills HRASV12-expressing BJeLR cells | BJeLR (HRASV12) viability, CellTiter-Glo ATP luminescence, 48 h; reference of the scale not given here | inhibition, % (concentration not given with the values) | actives 0.17% (n = 300,000) | AID 1554;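 active means replicate mean above 50%; inconclusive means above 50% but judged a plate artefact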;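 further: 50 nL library stock added to about 25 µL; numbers are from one replicate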
# PrP UTR inh: suppresses PrP 5' UTR mRNA reporter expression. actives 0.35% (n = 340,000). AID 488862. inhibition, % (test concentration not listed). cell-based PrP 5' UTR mRNA reporter, plate reader;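 active means every replicate at 50% or more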;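 further: 0 = median of the neutral control wells; tested in H4 reporter cells; numbers are from one replicate; inactives centre near -14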
# RN4220 kill: kills Staphylococcus aureus RN4220. S. aureus RN4220 growth, OD600, 16 h. inhibition, % (no concentration beside the values). actives 0.33% (n = 330,000). AID 1259311;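 active means z-score of -3 or lower and OD600 up to 0.18 on both plates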;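 further: plate controls were untreated cells for no effect and reference antibiotic for full effect; stock transfer was 100 nL into about 80 µL; one replicate is shown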
# Sa ugtP lethal: compounds lethal to S. aureus RN4220 ugtP deletion mutant | actives 0.54% (n = 330,000) | OD600 growth, 16 h; some inactives read as strong as hits | growth inhibition, % (test concentration not listed) | AID 1259309;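 active means z-score under -3 and OD600 up to 0.15 on both plates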;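 further: plate controls were untreated wells for no effect and antibiotic for full effect; wells of about 80 µL received 100 nL stock; the first replicate is given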
# Mtb hypoxia inh growth: recorded beside Mtb hypoxia inh, whose call it bears; growth inhibition, %; measured here: M. tuberculosis growth (absorbance);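 0% = vehicle and 100% = reference antibiotic; read after six days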
# Starred values were filed as active, the others as inactive; ? = inconclusive; · = no result given.
SMILES,Mtb hypoxia inh,Mtb hypoxia inh growth,Bead autofluor,BJeLR viability,PrP UTR inh,RN4220 kill,Sa ugtP lethal
NC(=O)CCCc1nc(-c2ccccc2)no1,11,7,5425,4,-11,3.0,6
CC1=C(C(=O)Nc2ccccc2)C2(CCCCC2)C(C(N)=O)C(=S)N1 (configuration not stated),6,5,2514,-2,-2,3.6,7
CC(Cn1cnc([N+](=O)[O-])n1)=NNC(=O)c1ccc(F)cc1,0,0,·,·,·,-3.3,18
COc1ccc(-n2nnc3c(=O)n(CC(=O)NCC4CCCO4)cnc32)cc1 (configuration not stated),4,7,10940,-2,·,0.3,0
Cc1ccccc1OCCn1nc(C(=O)O)c2ccccc2c1=O,·,·,4927,11,-9,2.5,12
COc1cc(C(=O)OCC(=O)N2CCC(C)CC2)cc2c1OCCO2,5,8,5962,·,·,3.7,1
Cc1cc(C)cc(Nc2ccc(C(=O)O)cc2[N+](=O)[O-])c1,17,7,3061,-7,-4,7.5,-7
CCC(C)NS(=O)(=O)c1ccc(NC(=O)CCC2CCCCC2)cc1 (configuration not stated),8,0,15196,-2,4,0.8,-2
CCOc1ncccc1C(=O)OCC(=O)N1CCN(S(=O)(=O)c2ccccc2)CC1,-6,2,4074,7,-11,1.0,-1
Cc1c(Cl)cccc1NC(=O)CC(NCCN1CCOCC1)C(=O)O (configuration not stated),-8,0,4083,10,-7,5.6,3
COc1ccc(NC(=O)c2c(-c3ccccc3)noc2C)c(OC)c1,5,3,10571,0,-17,10,6
COc1ccc(CNC(=O)c2ccc3c(=O)n4c(nc3c2)CCCCC4)cc1OC,0,-6,5996,·,-22,4.1,1

# Some of the entries above in another layout:
mol	Mtb hypoxia inh	Mtb hypoxia inh growth	Bead autofluor	BJeLR viability	PrP UTR inh	RN4220 kill	Sa ugtP lethal
COc1cc(C(=O)OCC(=O)N2CCC(C)CC2)cc2c1OCCO2	5	8	5962	·	·	3.7	1
Cc1cc(C)cc(Nc2ccc(C(=O)O)cc2[N+](=O)[O-])c1	17	7	3061	-7	-4	7.5	-7
CCC(C)NS(=O)(=O)c1ccc(NC(=O)CCC2CCCCC2)cc1 (configuration not stated)	8	0	15196	-2	4	0.8	-2
CCOc1ncccc1C(=O)OCC(=O)N1CCN(S(=O)(=O)c2ccccc2)CC1	-6	2	4074	7	-11	1.0	-1
Cc1c(Cl)cccc1NC(=O)CC(NCCN1CCOCC1)C(=O)O (configuration not stated)	-8	0	4083	10	-7	5.6	3
COc1ccc(NC(=O)c2c(-c3ccccc3)noc2C)c(OC)c1	5	3	10571	0	-17	10	6
COc1ccc(CNC(=O)c2ccc3c(=O)n4c(nc3c2)CCCCC4)cc1OC	0	-6	5996	·	-22	4.1	1

# Remaining list, next part:
SMILES,Mtb hypoxia inh,Mtb hypoxia inh growth,Bead autofluor,BJeLR viability,PrP UTR inh,RN4220 kill,Sa ugtP lethal
CC(CC(=O)Nc1cccc(Cl)c1Cl)=NNC(=O)c1ccccc1Br,0,14,·,·,·,-6.3,-2
CN(Cc1nc(-c2cnccn2)no1)CC1CCN(Cc2ccccc2)CC1,3,3,4808,-6,-25,1.3,8
C(=NNc1nc2ccccc2s1)c1ccccn1,2,-6,·,·,·,-4.8,-12
Cc1ccc(-c2nc(C)sc2CC(=O)Nc2nnc(C)s2)cc1,-5,2,3578,-10,-8,1.8,6
Cc1nonc1OCCNCc1c(C(=O)N2CCCCCCC2)nc2ccc(Cl)cn12,-5,3,3019,-6,-17,-0.3,4
Cc1cc(C)nc(N=C(N)Nc2cccc(OCc3ccccc3)c2)n1,-5,-15,·,·,·,1.0,-4
COc1ccccc1NC(=O)C1CC(C(C)C)OC1=O (configuration not stated),9,-3,6221,6,·,5.6,0
NC(=O)c1ccc(NC(=O)COC(=O)c2ccccc2Nc2ccccc2)cc1,5,15,2128,-14,-15,-5.8,-7
O=C(COC(=O)c1ccco1)NC12CC3CC(CC(C3)C1)C2,11,9,4074,·,-30,1.4,2
CCN1C(=NCCCOC(C)C)NC(CCc2ccccc2)C(C(=O)NCCCOC(C)C)C1C (configuration not stated),-5,13,·,·,·,1.9,-16
Cc1ccc(SCC(=O)Nc2cccc(C)c2)cc1,-2,9,3437,1,-29,2.8,1
O=C1CSC(=S)N1c1cccc(F)c1,0,-3,3878,7,-12,5.6,-6

# Quoted from the listing.
# Reading of CN(Cc1nc(-c2cnccn2)no1)CC1CCN(Cc2ccccc2)CC1 under Mtb hypoxia inh: 3
# Reading of C(=NNc1nc2ccccc2s1)c1ccccn1 under Sa ugtP lethal: -12

# Additional records:
SMILES,Mtb hypoxia inh,Mtb hypoxia inh growth,Bead autofluor,BJeLR viability,PrP UTR inh,RN4220 kill,Sa ugtP lethal
CCCC(O)(c1ccc(OC)cc1)C(CN1CCOCC1)c1ccccc1 (configuration not stated),6,6,2155,6,-11,7.0,3
O=C(NCc1ccccn1)c1ccccc1-c1ccccc1,-3,9,2476,2,-7,8.9,2
C=CCc1cc(Cl)ccc1OCCCNC(C)C,4,7,2453,8,-63,-8.3,1
O=C(O)CCCNc1n[nH]c(=O)[nH]c1=O,-8,-5,4362,9,-11,3.0,-3
Cn1c(=O)c2c(nc(CN3CCOCC3)n2CCN2CCOCC2)n(C)c1=O,7,2,8057,-10,-7,-1.5,3
COCCn1c(SCC(=O)NCC2CCCO2)nc2c(c1=O)SCC2 (configuration not stated),4,12,5436,0,-12,2.8,4
COc1cc(NC(=O)[C@H](C)NC(=O)N2CCn3c2nc2ccccc23)cc(OC)c1,16,5,6050,-1,-27,1.3,5
CC(CC(=O)NCc1ccco1)=NNC(=O)Cc1cccc2ccccc12,5,8,·,·,·,-9.7,-5
O=C(Cn1cc(SCc2ccccc2Cl)c2ccccc21)N1CCOCC1,3,0,9013,-10,-25,11,6
Cc1cc(N=NC(=O)c2ccccc2)ccc1O,1,3,2069,·,-20,3.3,3
CC(C)CCNC(=O)NC(=O)CN1C(=O)NC2(CCCCC2)C1=O,12,10,8175,-1,-35,7.6,6
COc1ccc(NC(=O)COc2ccc(/C=N/O)cc2OC)cc1,·,·,3934,8,-60,·,·
CCOCCCNC(=O)C(NC(=O)c1ccc(=O)[nH]c1)c1ccc(Cl)cc1 (configuration not stated),1,2,4457,-6,-7,-0.8,1
COc1cc(-n2c(=O)c3ccccc3n(CC(=O)c3ccc(Br)cc3)c2=O)cc(OC)c1OC,7,4,3489,19,-17,3.7,3
COc1cccc(-c2nnc(N)o2)c1,8,-8,4516,2,-4,-0.2,2
O=C(/C=C/c1ccccc1)N(c1ccccn1)C1CCCCC1,·,·,3360,5,-8,4.3,9
CCn1c(/C=C/Nc2ccccc2)[n+](CC)c2ccc(Cl)cc21,2,-1,3487,17,-24,-2.9,-2
COc1ccc(S(=O)(=O)N(C(=O)c2ccncc2)c2ccc3oc4c(c3c2)CCCC4)cc1,-7,2,10514,-14,-15,-12,8
N=C1C(c2ccccc2)=C(O)CN1NC(=O)c1ccc(Cl)cc1,-4,-7,2624,-11,-2,4.2,16
CCOc1ccc(C(C)=O)cc1NC(=O)/C=C\C(=O)O,·,·,4566,1,-11,·,·
Cc1cc(C)n(-c2nc3ccccc3nc2Nc2ccc(CC(=O)O)cc2)n1,-1,12,5805,7,-25,0.1,0
CCn1c2ccccc2c2cc(NC(=O)CCCN3C(=O)CCC3=O)ccc21,·,·,2609,6,-5,2.0,-4
Cc1nc2ccc(NC(=O)CCC3CCCC3)cc2s1,17,-3,6442,0,-19,5.9,1
Nc1ccccc1C(=O)NNc1ncc(C(F)(F)F)cc1Cl,-4,2,22928*,2,2,0.9,-5
CC(C)OP(=O)(c1ccc(N(C)C)cc1)C(O)c1ccccc1F (configuration not stated),3,-3,9950,6,-21,2.9,-7
CN(/N=C/c1cc(Br)cc(Br)c1O)c1cccc(C(F)(F)F)n1,·,·,3824,-3,15,·,·
COc1ccccc1N(CC(=O)NC1CCCC1)C(=O)CCC(=O)Nc1ccccn1,10,6,3901,1,-9,4.2,-4
Cc1cccc(NC(=O)C(C)C(=O)c2ccccc2)c1 (configuration not stated),6,7,3393,-4,-9,2.2,0
O=C1OC(N2C(=O)CC[C@H]2C(=O)Nc2ccc3c(c2)OCO3)c2ccccc21 (some centres not stated),·,·,6134,3,-34,3.4,4
Cc1cccc(C(=O)N/N=C/c2ccc(OC3CSC3)cc2)c1,·,·,7744,-11,-14,·,·
CC(=O)NC(Cc1ccccc1)C(=O)NC1CCN(c2ncccc2[N+](=O)[O-])CC1 (configuration not stated),-7,2,2173,6,-13,2.7,7
O=C(N/N=C/c1ccccn1)c1cccc(S(=O)(=O)N2CCCC2)c1,·,·,3673,0,-19,·,·
CCN(CC)c1nc(N)c2c(N)n(-c3ccccc3C)c(=S)c(C#N)c2c1C#N,1,12,7068,3,9,-2.2,-6
CCCOc1ccc(-c2cc3onc(-c4ccccc4)c3c(=O)n2C)cc1,18,17,3700,·,26,-5.8,10
CCCCn1c(N)c(N(CC(C)C)C(=O)C2CSC3(C)CCC(=O)N23)c(=O)[nH]c1=O (configuration not stated),-2,0,5942,2,-27,-2.7,-3
O=C(CCCN1C(=O)/C(=C/c2cccs2)SC1=S)Nc1cc([N+](=O)[O-])ccc1O,17,3,6176,1,-21,10,7
c1ccc(Cc2ccc(OCCN3CCOCC3)cc2)cc1,19,8,3905,-2,-21,5.9,2
O=C(c1nc2ccccn2c1CNCCn1ccc2ccccc21)N1CCOCC1,-6,5,5890,2,3,2.7,5
Cc1ccccc1NC(=O)/C(C#N)=C/c1ccccc1C(F)(F)F,5,2,3805,-4,-32,-4.7,-9
CCOc1cc(S(=O)(=O)N2CCN(C(=O)c3ccco3)CC2)ccc1F,2,3,·,-4,-9,4.4,9
CCOC(=O)CCC(=O)N1CCOCCN(C(=O)CCC(=O)OCC)CCOCC1,·,·,3856,2,-18,-2.1,4
Cc1ccc(Cc2c(C)nc3nc(SCC(=O)N4CCC5(CC4)OCCO5)nn3c2C)cc1,12,4,6290,-2,-33,-0.1,1
COc1ccc(Cl)cc1N/C(N)=N/c1nc(CSc2ccc(C)cc2)cc(=O)[nH]1,3,1,23248*,1,-10,1.3,-11
Cc1ccc(-c2ccc(SCC(=O)N3CCCc4ccccc43)nn2)cc1,4,8,·,-8,·,6.6,13
COc1ccc(CN(C)C(=O)CCN(c2ccccc2)S(=O)(=O)c2ccc(C)cc2)c(OC)c1,-7,-9,?,2,-5,-0.5,0
O=C(O)c1ccccc1C(=O)Nc1ccc(S(=O)(=O)Nc2ccc(F)cc2)cc1,5,5,3026,-4,-6,1.4,2
N=c1c2c(-c3ccccc3)c(-c3ccccc3)n(Cc3ccco3)c2ncn1CCCn1ccnc1,·,·,2565,52*,-20,-5.5,8
Cn1c(=O)c2sccc2n2c(CCCC(=O)Nc3ccccc3)nnc12,0,-1,5297,2,-25,2.4,5
O=C(COC(=O)CCNS(=O)(=O)c1cccs1)Nc1ccccc1,-2,-1,3723,·,-17,0.4,1
Cc1nc2ccc(Cl)cc2nc1C,-5,-8,4496,8,-24,3.4,-2
CN(CC(=O)Nc1c(Cl)cccc1Cl)C(=O)Cc1ccc(S(=O)(=O)N2CCOCC2)s1,9,-7,5601,3,-10,-1.2,3
O=C(CSc1nnc(-c2ccncc2)n1-c1ccccc1)Nc1ccc(C(=O)O)cc1,4,11,3677,-1,-15,0.7,8
CCOC(=O)c1c(C)n(CCOc2ccccc2)c2ccc(O)cc12,16,6,4034,0,-21,2.9,2
C[C@H](NC(=O)[C@@H]1CSC2c3ccccc3C(=O)N21)C(=O)NCc1c(F)cccc1Cl (some centres not stated),-15,7,5816,0,4,-0.5,-7
CCCCOC(=O)Nc1ccc(S(=O)(=O)Nc2onc(C)c2C)cc1,20,11,3567,7,-4,2.9,-2
CC(C(=O)OCC(=O)N1CCN(c2ccccc2)CC1)N1C(=O)c2ccccc2C1=O (configuration not stated),-4,-6,4795,·,-32,0.5,0
CCN(CC)c1ccc(/C=N/N2CCN(Cc3cccc4ccccc34)CC2)c(O)c1,·,·,23476*,11,-8,·,·
CC(=Nc1ccc(F)cc1)c1c(O)n(C)c(=O)[nH]c1=O,4,2,3870,-1,-10,2.1,7
O=C(COC(=O)c1ccc(F)cc1F)NC1CC1,1,-5,2556,-2,-28,2.0,6
COc1ccc(-c2nc3cc([N+](=O)[O-])ccc3o2)cc1OC,14,10,3150,3,-34,3.0,6
Cc1cc(CNC(=O)Cc2c(F)cccc2Cl)nn1C,-11,2,19997*,-3,-32,1.9,3
